MT1-MMP promoter – inhibitors of MT1-MMP promoter transcription, cell-based, luciferase reporter, luminescence (AID 618); MT1-MMP promoter luciferase reporter cells, luminescence; calls from a first round at 10 µM; hits with a dose series show EC50 in µM; hit rate 0.62% among 87,000;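 active = over half of the reporter light lost at 10 µM or EC50 under 50 µM; inactive = the rest and hits that failed the dose series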;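 note: actives suppress MT1-MMP promoter-driven transcription so potencies describe inhibitors; HT1080 fibrosarcoma cells; overnight exposure; toxic or luciferase-blocking compounds were not removed from the actives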
Active calls of the source: *; i = inactive. The list is partial, so the mix of outcomes need not match the whole.

smiles	MT1-MMP promoter
COC(=O)c1ccc(C(NC(=O)OCc2ccccc2)/C(=C/[C@@H](C)C(=O)NCc2ccc(S(C)(=O)=O)cc2)C(F)(F)F)cc1 (stereo not given in full)	i
Brc1ccc(N=C/C=C/C=C/Nc2ccc(Br)cc2)cc1	i
COc1ccc(CNC(=O)CCCOc2cc(=O)n(C)c3ccccc23)cc1	i
O=C(CCn1c(=O)[nH]c2ccsc2c1=O)NCCc1ccc(Cl)cc1	i
COC(=O)[C@H]1C[C@@H]1[C@H](NC(=O)c1cc(C)on1)c1ccccc1	i
CC1=C(C(=O)OCc2ccccc2)C(c2ccccc2OC(=O)c2ccc(I)cc2)NC(=O)N1CCCC(=O)O (stereo not given)	i
N#Cc1ccc(CSc2nnc(COc3ccccc3)n2-c2ccccc2)cc1	i
CC(CCc1ccccc1)NC(=O)c1ccccc1 (stereo not given)	i
COc1ccc2cnn(-c3ccc(C)cc3)c(=O)c2c1OC	i
CCCC1=NCCn2cccc21	i
Cc1ccc(C(=O)NCc2ccco2)cc1S(=O)(=O)N1CCOCC1	i
O=C(Nc1ccc(F)cc1)c1cccnc1N1CCCCC1	i
CCOC(=O)c1nnc(-c2ccccc2)nc1Sc1c(Cl)cccc1Cl	i
C/C(=N\NS(=O)(=O)c1ccc(C)cc1)c1ccc(C)s1	i
CCOC(=O)NC(=O)/C(C#N)=N\Nc1ccc(Cl)cc1	i
Cc1cc(Oc2ccccc2)nc(SCC(=O)Nc2ccc(Cl)c(Cl)c2)n1	i
COc1ccc(C(=O)c2ccc(N3CCN(C(=O)c4ccc(F)cc4)CC3)c(F)c2)cc1Br	i
O=C(NCc1ccccc1Cl)c1ccc2c(=O)n(CCCN3CCCC3=O)c(=S)[nH]c2c1	i
O=C(CN(c1ccccc1)S(=O)(=O)c1ccc(Cl)cc1)Nc1ccccc1C(=O)N1CCCC1	i
COc1ccc(N2CCN(CCCNC(=O)Nc3ccccc3)CC2)cc1	i

Two consecutive records from above:
smiles	MT1-MMP promoter
COC(=O)c1ccc(C(NC(=O)OCc2ccccc2)/C(=C/[C@@H](C)C(=O)NCc2ccc(S(C)(=O)=O)cc2)C(F)(F)F)cc1 (stereo not given in full)	i
Brc1ccc(N=C/C=C/C=C/Nc2ccc(Br)cc2)cc1	i

Remaining list, next part:
smiles	MT1-MMP promoter
O=C(CCS(=O)(=O)c1ccc(Br)s1)NC1CCCC1	i
Cn1nnnc1SCCNCc1ccc(Cl)cc1	i
CCC1=C2CC[C@H]3C(=O)NC(=O)[C@H]3[C@H]2[C@@]2(C)C(=NCCc3c[nH]c4ccccc34)OC(=O)N2C1=O	i
COc1cccc(C2=NOC(C(=O)NCc3cccs3)C2)c1 (stereo not given)	i
Cn1c(=O)cc(SCC(=O)N2CCN(c3ccccc3)CC2)c2ccccc21	i
O=C(O)C1C2CCC(O2)C1C(=O)Nc1cnn(Cc2ccccc2)c1 (stereo not given)	i
COC(=O)[C@@]1(Cc2ccc(F)cc2)[C@H]2c3cc(C(=O)N4CCCC4)n(CCCNc4ncc(C(F)(F)F)cc4Cl)c3C[C@H]2CN1C(=O)c1ccccc1	i
CNC(=S)Nc1ccc(Nc2ccccc2)cc1	i
C=CCN1C(=O)CSc2ccc(C(=O)N3CCC(C)CC3)cc21	i
CCOc1ccc(CNC(=O)c2cc3oc4ccccc4c3n2C)cc1	i
CCc1ccc(N=C2N=C(N)c3ccccc32)cc1	i
O=C(c1ccc2c(c1)OCO2)N1CCN(C(=O)c2ccco2)CC1	i
Cc1cc2ccccc2c(=O)n1CC(=O)NCC(=O)N(C)C1CCCCC1	i
Cc1cccc(N2CCN(C(=O)c3cccn4c(=O)c5c(C)c(C)sc5nc34)CC2)c1C	i
Cc1cccc2sc(NC(=O)CSCc3ccccc3)nc12	i
COc1cccc(CNC(=O)C2CCCN(c3nn4c(=O)cc(C)nc4s3)C2)c1OC (stereo not given)	i
Cc1ccc(NC2CC(=O)N(Cc3ccccc3)C2=O)cc1 (stereo not given)	i
O=C1CC(c2ccccc2)CC(O)=C1C=NCCN1CCN(C(=S)Nc2cccc(Cl)c2)CC1 (stereo not given)	i
CC(C)CC1(C(=O)NCCc2c[nH]c3ccccc23)C=CCN1C(=O)c1ccccc1 (stereo not given)	i
CCC(C)NC(=O)CSc1nc2ccsc2c(=O)n1-c1ccc(OC)cc1 (stereo not given)	i
CC(=O)N1C2(C=CC1(C)C(=O)NCc1ccc(C)o1)CCCCC2 (stereo not given)	i
c1cc(CNc2ccc(N3CCOCC3)cc2)ccn1	i
Cc1ccc(-c2noc(CN(C(=O)C(c3ccccc3)c3ccccc3)C(C)C)n2)cc1	i
CC1CCCCN1CC(=O)Nc1ccc(Oc2ccccc2)cc1 (stereo not given)	i
CCCCCCN(C(=O)CCCCCN1C(=O)NC(c2ccc([N+](=O)[O-])cc2)C(C(=O)OCc2ccccc2)=C1C)C(C(=O)NCCCC)c1ccc(OCC(=O)OC)c(C(=O)OC)c1 (stereo not given)	i
c1ccc(-c2cnc(-c3ccccc3)nc2)cc1	3.7µM*
COC(=O)[C@@]1(Cc2ccc(F)cc2)[C@H]2c3cc(C(=O)N(C)C)n(CCF)c3C[C@H]2CN1C(=O)c1ccccc1	i
COC(=O)[C@@]1(Cc2ccc(OC)cc2)[C@H]2c3cc(C(=O)N4CCCC4)n(Cc4ccc(C)c(F)c4F)c3C[C@H]2CN1C(=O)c1ccccc1	i
Cc1ccc(C2=NC(C)(C)N=C2SCC(=O)Nc2ccc(Cl)cc2)cc1	i
O=C(NCc1ccc(Cl)cc1Cl)C(=O)N1CCCCC1	i
CC(C)(C)NC(=S)Nc1ccc(Nc2ccccc2)cc1	i
Nc1c(C(=O)Nc2ccccc2)sc2nc3c(c(-c4ccco4)c12)CCCC3	i
O=C(OCc1ccc(Cl)c(Cl)c1)c1ccccn1	i
COC(=O)N1[C@H](C)C=C[C@]1(Cc1ccccc1)C(=O)NCc1ccc(C)o1	i
COC(=O)[C@@]1(Cc2ccc(F)cc2)[C@H]2c3cc(C(=O)N(C)C)n(Cc4ccc(O)c(OC)c4)c3C[C@H]2CN1C(=O)c1ccccc1	i
CCc1ccc(NC(=O)N(CCOC)C2CCN(C(C)=O)CC2)cc1	i
CCC(C)(C(=O)NC1CCCC1)N(C(C)=O)c1ccc(C)cc1 (stereo not given)	i
CCCN1CCN(C(=O)Nc2ccc(C(=O)OCC)cc2)CC1	i
Cc1ccc(-c2nc3ncccn3c2Nc2ccc3c(c2)OCCO3)cc1	i
c1ccc(-c2ccc(CN3C[C@@H]4C(c5ccccc5)C5(c6ccccc6)CC4(C5)[C@H]3c3ccccc3)cc2)cc1 (stereo not given in full)	i
CCOc1c(OC)ccc2c3c(c(=O)oc12)CCCC3	i
CCn1cnc2cc(NCc3ccc(OC)cc3)ccc21	i
O=C(Nc1nnc(C(F)(F)F)s1)c1ccc(N2C(=O)C3C4C=CC(C4)C3C2=O)cc1 (stereo not given)	i
COc1ccc(CC(=O)NNC(=O)c2ccc(SCc3cc(F)ccc3F)c([N+](=O)[O-])c2)cc1	i
COc1ccc2c(c1)CC/C(=C\c1ccc(OC)c(Cn3cccn3)c1)C2=O	i
C[C@@H](C(=O)Nc1ccc2ccccc2c1)[C@H]1C[C@]1(C)[C@H](NC(=O)OCc1ccccc1)c1ccccc1	i
O=C(CCS(=O)(=O)Cc1ccccc1)N1CCc2ccccc2C1	i
Cc1nn(C)c(Cl)c1S(=O)(=O)N[C@@H](c1ccccc1)[C@]1(C)C[C@H]1[C@@H](C)C(=O)Nc1ccc2ccccc2c1	i
O=c1c2cc(F)ccc2[nH]c(=S)n1CCCN1CCOCC1	i
C=CCc1ccc(OCCOCCN(C)C)c(OC)c1	i
COc1ccc(C2OC(=O)CC2C(=O)NC2CCCC(C)C2C)cc1OC (stereo not given)	i
N#CC1=C(N)Oc2cc3ccccc3cc2C1c1cccs1 (stereo not given)	i
c1ccc(NC2=Nc3ccccc3CC2)cc1	i
CC(=O)N1CC=CC1(CC(C)C)C(=O)NCCN1CCOCC1 (stereo not given)	i
COc1ccc(OC)c(/C(O)=C/C(=O)C(=O)Nc2cc(C)ccc2OC)c1	i
CCOC(=O)c1ccc(Nc2ncnc3ccc(C)cc23)cc1	i
Cc1ccc(NC(=O)CN(Cc2ccccc2)S(C)(=O)=O)cc1C	i
CCCC1NC(=O)NC(C)=C1C(=O)OCC (stereo not given)	i
CCOc1cc(Br)ccc1S(=O)(=O)N1CC(C)OC(C)C1 (stereo not given)	i
COC(=O)[C@@H]1C[C@@]2(O)[C@H](O)[C@H](O)[C@H](O)C[C@H]2N1Cc1ccccc1OS(=O)(=O)c1ccc(C)cc1	i

Next section; it opens with the four that closed the last part.
smiles	MT1-MMP promoter
Cc1ccc(NC(=O)CN(Cc2ccccc2)S(C)(=O)=O)cc1C	i
CCCC1NC(=O)NC(C)=C1C(=O)OCC (stereo not given)	i
CCOc1cc(Br)ccc1S(=O)(=O)N1CC(C)OC(C)C1 (stereo not given)	i
COC(=O)[C@@H]1C[C@@]2(O)[C@H](O)[C@H](O)[C@H](O)C[C@H]2N1Cc1ccccc1OS(=O)(=O)c1ccc(C)cc1	i
CC(=O)n1nc(-c2ccc(Cl)cc2)nc1NCc1ccco1	i
CCCSc1ncc(Cl)c(C(=O)Nc2ccc(S(=O)(=O)N3CC(C)OC(C)C3)cc2)n1 (stereo not given)	i
Cc1ccc(C(=O)Nc2nnc(C3CCCCC3)s2)o1	i
Cc1nc2c(C(=O)NCc3ccc4c(c3)OCO4)cnn2c(C)c1Cc1ccc(F)cc1Cl	i
CCOC(=O)C1CCCN(C(=O)CSCc2ccccc2)C1 (stereo not given)	i
COC(=O)c1ccccc1NC(=O)c1cc(-c2ccc(C)cc2)on1	i
COc1ccc(/C(N)=N/OC(=O)Oc2ccccc2)cc1	i
Cc1ccc(OCC(=O)Nc2ccc(F)cc2)cc1	i
CCCN1CCCc2ccccc21	i
CCC1=C2CC[C@H]3C(=O)N(CC)C(=O)[C@H]3[C@H]2[C@@]2(Cc3ccccc3)C(=O)N(CC3CC3)C(=O)N2C1=O	i
CCn1c(=O)n(CC)c2cc(S(=O)(=O)N3CCCCC3)c(C)cc21	i
Fc1ccc(C2NCCn3cccc32)cc1 (stereo not given)	i
CCC/C=C(\CCC)C(NP(=O)(c1ccccc1)c1ccccc1)c1ccc(-c2ccccc2)cc1 (stereo not given)	i
Cc1ccc(NC(=O)c2cccs2)cc1	i
COC(=O)[C@H]1C[C@@H]1[C@H](NC(=O)Oc1ccc(F)cc1)c1ccccc1	i
COC(=O)c1cccc(C23CC4(C2)[C@H](CN(Cc2ccc(C(F)(F)F)cc2)[C@@H]4c2ccccc2)C3c2ccc(C(F)(F)F)cc2)c1 (stereo not given in full)	i
COc1ccc(Cn2c(C)c(C)c(C#N)c2NC(=O)Nc2ccccc2)cc1	i
COc1ccc(NC(=S)NC(NC(=O)c2ccc(Cl)cc2Cl)C(Cl)(Cl)Cl)c([N+](=O)[O-])c1 (stereo not given)	i
CC(=O)Nc1ccc(C(=O)n2cnc3cc(C)c(C)cc32)cc1	i
CCOc1ccc(CCNC(=O)c2cccc(N3CCCC3=O)c2)cc1OCC	i

3 compounds drawn at random from those above:
smiles	MT1-MMP promoter
COC(=O)[C@H]1C[C@@H]1[C@H](NC(=O)Oc1ccc(F)cc1)c1ccccc1	i
COc1ccc(Cn2c(C)c(C)c(C#N)c2NC(=O)Nc2ccccc2)cc1	i
COc1ccc(NC(=S)NC(NC(=O)c2ccc(Cl)cc2Cl)C(Cl)(Cl)Cl)c([N+](=O)[O-])c1 (stereo not given)	i

Carrying on.
smiles	MT1-MMP promoter
CCOc1cccc(N2C(=O)CC(N3CCN(c4ccc(S(=O)(=O)CC)cc4)CC3)C2=O)c1 (stereo not given)	i
Cc1cc(N2CCCCC2)nc2ccc(NC(=O)c3ccc(Br)o3)cc12	i
COC(=O)C1=C(COc2ccccc2)NC(=O)NC1c1ccc2ccccc2c1 (stereo not given)	i
CCCC[C@@H]1C[C@H]1C(NC(=O)c1cccs1)c1ccc(-c2ccccc2)cc1 (stereo not given in full)	i
O=C(CSc1nc2ccccc2[nH]1)Nc1ccccc1F	i
O=C(CC12CC3CC(CC(C3)C1)C2)Nc1cccc2ncccc12	i
CC(=O)N1CC=CC1(CC(C)C)C(=O)NCC1CC1 (stereo not given)	i
O=C1Nc2ccccc2C(O)(C(=O)NCc2ccc3c(c2)OCO3)N1c1ccc(Cl)c(Cl)c1 (stereo not given)	i
N#CC1=C(N)Oc2n[nH]c(-c3ccccn3)c2C1c1c(F)cccc1Cl (stereo not given)	i
CCNC(=O)C(=O)NCCc1ccc(Cl)cc1	i
CCOC(=O)C1=C(C)NC2=C(C(=O)C(C(=O)OCC)C(c3ccccc3OC)C2)C1c1ccccn1 (stereo not given)	i
COC(=O)c1c(C)nn(-c2ccccc2)c1-n1cccc1	i
COC(=O)[C@@]1(Cc2ccc(OC)cc2)[C@H]2c3cc(C(=O)N(C)C)n(Cc4ccc(C)c(F)c4F)c3C[C@H]2CN1C(=O)c1ccccc1	i
O=C(Nc1cc(Cl)cc(Cl)c1)c1cnn2cccnc12	i
CCOc1ccc(NC(=O)CSc2nnc(C34CC5CC(CC(C5)C3)C4)n2C)cc1	i
Cc1ccc(OC(=O)c2ccc(Br)o2)cc1	i
C[C@]1(C(=O)NCC2CC2)C=C[C@@H](Cc2ccccc2)N1C(=O)c1ccccc1	i
COc1ccc(OC)c(C2=NOC(C(=O)Nc3ccccc3SC)C2)c1 (stereo not given)	i
CC1(C(=O)O)C=CC2(CCCCC2)N1C(=O)c1ccccc1 (stereo not given)	i
